High-throughput results (PubChem BioAssay)
2A firefly: lowers the firefly signal of an FMDV 2A StopGo reporter | HEK cells with a luciferase reporter of 2A StopGo recoding | actives 0.23% (n = 120,000) | Potency, µM (top dose mostly 57.5 µM), inactives show at the top dose signal change, negative = less light | AID 1745856; active = well fitted falling curve with a large enough effect; inconclusive = small, poorly fitted or top-dose-only effect; inactive = no such curve, though single readings can be large or run the other way; also: nearly all actives have a fitted effect of over 60% in size; overnight with compound
StopGo RLuc: lowers the Renilla signal of an FMDV 2A StopGo reporter | HEK cells with a luciferase reporter of 2A StopGo recoding | Potency, µM (highest dose often 57.5 µM), for the others: at the highest dose signal change, negative = less light | actives 0.32% (n = 120,000) | AID 1745857; active means well fitted falling curve with a large enough effect; inconclusive means small, poorly fitted or top-dose-only effect; inactive means no such curve, though single readings can be large or run the other way; also: nearly all actives have a fitted effect of over 55% in size; overnight with compound
* = called active by the depositor; ? = inconclusive; & = joins results of further samples; [ ] = remark or other dose. % is scaled to controls: 0 for no effect and ±100 for the full control effect; potency is read from the fitted curve at half-maximal effect.

The line under a structure holds: 2A firefly	StopGo RLuc
Cc1cccc(OCCSc2nc3cc(S(=O)(=O)N(C)C)ccc3o2)c1
→ ?	?
C[C@H]1C[C@H]2[C@@H]3CCC4=CC(=O)C=C[C@]4(C)[C@H]3C(=O)C[C@]2(C)[C@@]1(O)C(=O)CO
→ 4%[11.5 µM]	12%
N/C(=N\C(=O)OCc1ccccc1)N(CC#CC1=CCCCC1)CC1CC1
→ 16%	0%
CCOC(=O)/C=c1/s/c(=C/c2cccc(Cl)c2)c(=O)n1Cc1ccc(C(=O)OC)cc1
→ -3%	0%
N#Cc1ccccc1OCC(=O)NNC(=O)C1COc2ccccc2O1 (centres undefined)
→ 9%	-2%
CCc1ccc(CN(Cc2ccco2)C(=O)COc2ccc(Cl)c(C)c2)cc1
→ 21%	-2%
CCN(Cc1ccccc1)C(=O)c1cc2ccc3cccnc3c2[nH]1
→ -1%	-25%
CC(OC(=O)c1c[nH]c2ccccc12)C(=O)Nc1ccc(C(N)=O)cc1 (centres undefined)
→ -1%	-11%
O=S(=O)(c1ccccc1F)N1CCN(c2nc(-c3cccnc3)nc3ccccc23)CC1
→ 19%	41%[activator]
CCC1=Nc2cc(C(=O)NCC(C)c3ccccc3)ccc2Sc2ccc(C)cc21 (centres undefined)
→ 42%[activator]	50%[activator]
Cc1cc2nc(CSc3ccc(NC(=O)C(C)(C)C)cc3)c(=O)[nH]c2cc1C
→ 0%	-4%
CCOc1ccccc1NC(=O)Cn1nnc2sc(-c3ccccc3)cc2c1=O
→ -10%	-15%
CCCCCc1ccc(-c2ccc(C3CCC(CCC)C(C)C3)cc2)nc1 (centres undefined)
→ 0%	-12%[1.06 µM]
CC(C)(CC(=O)OCC(=O)Nc1ccccc1F)CC1=NS(=O)(=O)c2ccccc2N1
→ ?	84%[activator]
O=C(O)CCCNS(=O)(=O)c1ccc(Cl)c(Cl)c1
→ -5%	5%
CCOc1ccc(S(=O)(=O)Nc2ccc(-c3ccc(N4CCC(C)CC4)nn3)cc2)cc1
→ 114%[activator]	86%[activator]
COc1ccccc1-c1nnc(SCC(=O)N(C)C2(c3ccccc3Cl)CCCCC2=O)n1C (centres undefined)
→ 7%	33%[activator]
Cc1cc(C)c(NC(=O)CC2(C(=O)O)CCCCC2)c(C)c1
→ 8%	-6%
CCOc1ccc(NCc2cccn2-c2nnc(N3CCC(C(=O)NC(C)CC)CC3)s2)cc1 (centres undefined)
→ -16%	-8%
CC(=O)C1=C(C)N(C2CCCC2)C(=O)C1(NC(=O)c1ccc(C(C)(C)C)cc1)C(F)(F)F (centres undefined)
→ 11%	15%
Nc1nc(SCC(=O)NCc2ccc(F)cc2)n[nH]1
→ -5%	-7%
CNC(=O)c1ccc(OCc2nnc(C(C)(C)C)o2)cc1
→ 12%	-4%
CC1=C(C(=O)OCC2CCCCC2)C(c2c(F)cccc2Cl)CC(=O)N1 (centres undefined)
→ 3%	5%
COc1ccc(-n2ncc(C(=O)NCc3ccccc3)c2C2CCN(C(=O)OC(C)(C)C)CC2)cc1
→ -9%	47%[activator]
Cc1ccc2c(C)c(CCC(=O)Nc3ccc(F)cc3Cl)c(=O)oc2c1
→ 4%	-1%
CC(=O)c1cccc(NC(=O)CCS(=O)(=O)c2cc(Br)cc3c2N(C(=O)C2CC2)CC3)c1
→ -17%	2%
CC(C)CCN(C(=O)CN1c2ccccc2CC1C)c1c(N)n(Cc2ccccc2)c(=O)[nH]c1=O (centres undefined)
→ -17%	-11%
COc1ccc(-c2c(C)oc3cc(OC(=O)c4ccccc4)ccc3c2=O)cc1OC
→ -4%	-6%
C=CCNC(=O)c1ccc(CNC(N)=O)cc1
→ 2%	-3%
Cc1[nH]c2ccccc2c1C(c1cccc(O)c1)c1c(C)[nH]c2ccccc12
→ 1%	9%
COc1ccc(NC(=O)Cn2cnc3ccc(S(=O)(=O)N4CCC(C)CC4)cc3c2=O)cc1OC
→ -14%	7%
Cc1ccc(Nc2cc(C)c(C#N)c3nc4ccccc4n23)cc1Cl
→ 15%	-5%
N#Cc1ccc(CNC(=O)CCc2ccsc2)cc1
→ 2%	5%
Cc1ccc2nc(-c3cccnc3)cc(C(=O)NCc3cccs3)c2c1
→ 80%[activator]	61%[activator]
COC(=O)CNC(=O)c1ccc(C)cc1C
→ 57%[activator]	-11%
COC(=O)CN1CCN(c2nc3c(c(=O)[nH]c(=O)n3C)n2Cc2ccc(Cl)cc2)CC1
→ -10%	-12%
O=C(Nc1ccc(OC(F)F)cc1)c1nc(S(=O)(=O)Cc2ccccc2F)ncc1Cl
→ ?	?
Cc1ccc(Cl)cc1N1CCN(C(=O)CCS(=O)(=O)c2cccc3nsnc23)CC1
→ ?	?
O=c1c2ccccc2nc(/C=C/c2cccc3ccccc23)n1-c1ccc(F)cc1F
→ -3%	-25%
CCOc1ccccc1NC(=O)Cn1nnc(C(=O)NCc2cccs2)c1N
→ -12%	-4%
C/C(=N/Nc1cc(C)c2ccccc2n1)c1ccc([N+](=O)[O-])cc1
→ 0%	-7%[1.06 µM]
O=C(CCc1nc2cccnc2n1Cc1ccccc1)NCc1cccc(Cl)c1
→ ?	?
COc1ccc(-c2ccc(CCC(=O)NC3CCCCC3)o2)cc1
→ 0%	27%
COc1cccc(OCCCCn2c(-c3ccc(Cl)cc3)nc3ccccc3c2=O)c1
→ -8%	-11%
COc1ccc(OC)c(CNS(=O)(=O)c2ccc3[nH]c4c(c3c2)CCCCC4)c1
→ ?	90%[activator]
Clc1ccc(CN2CCN(c3ncnc4nc[nH]c34)CC2)c(Cl)c1
→ -5%	-9%
CCN1CCC(NC(=O)Cc2cc(Cl)c3c(c2)OCCCO3)CC1
→ 5%	5%
CN(CC(=O)NC(=O)NCc1ccccc1)C1CCCc2ccccc21 (centres undefined)
→ 20%	-5%[1.06 µM]
O=[N+]([O-])c1ccc(Br)c2ccncc12
→ 31%	21%
Nc1nccc(-c2cccc([N+](=O)[O-])c2)n1
→ 13%	0%
N#C/C(=C\c1ccc(-c2ccccc2)o1)c1ccccc1
→ 256%[activator]	8%
CC(=O)NCCCNC(=O)c1cc2ccccc2[nH]1
→ 16%	0%
Cc1ccc(C)c(C(C)NC(=O)c2cc3ccccc3oc2=O)c1 (centres undefined)
→ ?	?
CCn1nc(C)c(CNC(=O)Nc2cc(Cl)ccc2OC)c1C
→ 0%	-1%
OC[C@@H](O)[C@H](O)[C@H](O)[C@@H](O)CO
→ -8%&-5%	-5%&-2%
COc1ccc(N2C(=O)C(C)CS2(=O)=O)cc1S(=O)(=O)Nc1ccc(Cl)cc1 (centres undefined)
→ 1%	-10%
CC(C)c1nc(NCC2CCCO2)c(C#N)c2c1CCCC2 (centres undefined)
→ 18%	5%
CC(=O)Nc1ccc(S(=O)(=O)NC2(C(F)(F)F)C(=O)Nc3c2c(=O)[nH]c(=O)n3-c2ccc(C)cc2)cc1 (centres undefined)
→ -9%	-11%
Cc1cccc(COc2ccc(CNC(=O)c3nccnc3N)cc2)c1
→ ?	14µM*
COc1ccc(NC(=O)C(=O)NCCc2ccc(OC)c(OC)c2)c(OC)c1
→ -1%	-7%

The final 4 compounds of the section before come first, to join the parts:
The line under a structure holds: 2A firefly	StopGo RLuc
CC(C)c1nc(NCC2CCCO2)c(C#N)c2c1CCCC2 (centres undefined)
→ 18%	5%
CC(=O)Nc1ccc(S(=O)(=O)NC2(C(F)(F)F)C(=O)Nc3c2c(=O)[nH]c(=O)n3-c2ccc(C)cc2)cc1 (centres undefined)
→ -9%	-11%
Cc1cccc(COc2ccc(CNC(=O)c3nccnc3N)cc2)c1
→ ?	14µM*
COc1ccc(NC(=O)C(=O)NCCc2ccc(OC)c(OC)c2)c(OC)c1
→ -1%	-7%
O=c1[nH]c2ccccc2n1C1CCN(CCCC(c2ccc(F)cc2)c2ccc(F)cc2)CC1
→ ?	0%
Cc1cc(C(=O)N2CCCCC2)cs1
→ 6%	5%
Cc1ccc(CNC(=O)C2CCN(c3nc4ccccc4n(C)c3=O)CC2)cc1
→ -13%	-11%
Cc1ccccc1CNCCCSc1nnnn1C
→ -4%	-3%
C=CCNC(=S)NNC(=O)OCC
→ 30%[activator]	30%
Cc1cccc(C)c1NC(=O)CSc1nnc2[nH]c(=O)c(Cc3ccccc3)nn12
→ 24%	-6%
O=C1CC(c2ccccc2)c2c(n3ncnc3[nH]c2=O)N1 (centres undefined)
→ -11%	-5%
COC(=O)c1[nH]c2ccc(F)cc2c1NC(=O)CCN1CCCC(C)(C)C1
→ -5%	-3%
Cc1c(NC(=O)c2cc(=O)c3cc(Cl)ccc3o2)c(=O)n(-c2ccccc2)n1C
→ 1%	-16%
Cc1cc(C)cc(NC(=O)NCCc2c(C)nn(C)c2C)c1
→ 14%	10%
Cc1ccc(N(C(=O)C2C3CC4CC(C3)CC2C4)C2C=CS(=O)(=O)C2)cc1 (centres undefined)
→ -15%	-6%
COc1ccc(NC(=O)c2sc(-c3c(F)cccc3OC)nc2C)c(OC)c1
→ 6%	8%
COc1ccc(-c2nc3nc(C)cc(Nc4cccc(C(F)(F)F)c4)n3n2)cc1
→ -3%	-2%
COc1ccc(C(=O)NCc2coc(-c3cccs3)n2)c(O)c1
→ 30%	39%[activator]
CC(C)(C)NC(=S)N1CCn2cccc2C1c1ccc(F)cc1 (centres undefined)
→ -4%	5%
O=C(CN1C(=O)C2(SCC(=O)N2c2cccc(F)c2)c2ccccc21)NCCc1ccccc1 (centres undefined)
→ -22%	4%
Cc1ccc(N2NC3(CCC(C)CC3)NC2=S)cc1 (centres undefined)
→ 0%	25%
Nc1nccnc1C(=O)NCCc1ccsc1
→ 148%[activator]	4%
Cc1cc2nc(Nc3nc(C(C)C)cc(=O)[nH]3)nc(C)c2cc1C
→ 10%	1%
Cc1ccccc1Nc1c2c(nc3ccccc13)CCCC2
→ ?	?
C[C@H]1[C@H](NC(=O)/C(=N/OC(C)(C)C(=O)O)c2csc(N)n2)C(=O)N1S(=O)(=O)O (stereo in doubt)
→ -14%[11.5 µM]	-7%
Cc1ccc(NC(=O)c2ccc(=O)n(CC(=O)Nc3ccccc3)n2)cc1
→ -8%	-8%
CC1(C)C/C(=N/O)C=CO1
→ 1%	1%
COC(=O)c1cc(S(=O)(=O)N2CCCCC2)ccc1N1CCOCC1
→ -6%	0%
Cc1ccc(C)c(C(=O)NC(C)C2CC3CCC2C3)c1 (centres undefined)
→ 17%	29%
Cc1[nH]c2ccccc2c1CC(=O)NCc1cn2ccccc2n1
→ -5%	4%
COc1cccc(N2CCN(c3ncnc4c3c(-c3ccccc3)cn4-c3ccc(F)cc3)CC2)c1
→ -19%	-8%
S=C(NCCCCCNC(=S)Nc1cccc(Cl)c1)Nc1cccc(Cl)c1
→ ?	?
O=S(=O)(NC1=NCN(Cc2ccco2)CN1)c1ccccc1
→ -1%	-3%
O=C(CC1Sc2ccc(C(F)(F)F)cc2NC1=O)Nc1ccc(F)c(Cl)c1 (centres undefined)
→ 6%	0%
N#Cc1c(C(F)(F)F)cc(-c2ccc(F)cc2)nc1SCC(=O)Nc1ccccc1
→ 30%[activator]	-5%
Cc1ccc(C=Nc2c(Br)cc(C)cc2Br)cc1
→ -6%	3%
O=C(N/N=C/c1ccc(Cl)cc1)c1cccs1
→ 0%	24%
CCOc1ccc(Sc2cc(C(=O)NCc3ccc(C)cc3)c3ccccc3n2)cc1
→ 0%	3%
Cc1cccc(OC(C)c2nc(-c3cccc(Br)c3)no2)c1 (centres undefined)
→ 23%	-2%
CC1(C)Cc2sc3c(=O)n(Cc4c(Cl)cccc4Cl)cnc3c2CO1
→ 26%	84%[activator]
COc1cc(/C=C(\C#N)C(=O)C(C)(C)C)ccc1OCc1c(F)cccc1Cl
→ 0%	26%
Cc1ccc(-c2nc(C(=O)NCc3ccc(Cl)cc3)c3n2CCCCC3)cc1
→ ?	?
O=C(Nc1cc(Cl)ccc1O)c1cc2nc(-c3ccc4c(c3)OCO4)cc(C(F)(F)F)n2n1
→ -12%	-11%
CCNc1c(NS(=O)(=O)c2ccc(F)cc2F)c(=O)oc2ccccc12
→ 10%	8%
O=C(CN1CCCc2ccccc21)Nc1cccc2nsnc12
→ 8%	-12%
Cc1ccc(OCC(=O)Nc2ccc(C(=O)OCc3cc(=O)n4c(C)csc4n3)cc2)cc1
→ -6%	21%
COC(=O)c1ccc(C)c(NC(=O)Cc2cc(C)ccc2OC)c1
→ -7%	0%
CC(NCC(=O)NC1(C#N)CCCCCC1)c1ccc(Cl)cc1Cl (centres undefined)
→ 9%	107%[activator]
CCc1ccccc1NC(=O)CSc1ncc(S(=O)(=O)c2ccccc2)c(=O)[nH]1
→ 4%	-1%

In the list so far, 3 have a nitro group on carbon.
The line under a structure holds: 2A firefly	StopGo RLuc
C/C(=N/Nc1cc(C)c2ccccc2n1)c1ccc([N+](=O)[O-])cc1
→ 0%	-7%[1.06 µM]
O=[N+]([O-])c1ccc(Br)c2ccncc12
→ 31%	21%
Nc1nccc(-c2cccc([N+](=O)[O-])c2)n1
→ 13%	0%

More structures:
The line under a structure holds: 2A firefly	StopGo RLuc
Cc1ccc(N(Cc2cccs2)C(=O)COc2ccccc2[N+](=O)[O-])cc1
→ -23%	29%
COc1ccc(NC(=O)c2cc3c(=O)n(Cc4cccnc4)ccc3nc2C)c(OC)c1
→ -16%	-7%
O=C(Nc1ccccc1Oc1ccccc1)c1ccoc1
→ 2%	2%
Cc1ccc(-n2ncc(C(=O)N3CCN(c4cc(Cl)ccc4C)CC3)c2C2CCN(C(=O)OC(C)(C)C)CC2)cc1
→ -5%	-12%
CCc1ccccc1NC(=O)CCS(=O)(=O)c1cccc2nonc12
→ -13%	10%

An excerpt; rates above refer to the full screens.
